From PubChem BioAssay
ID4 SMM: ID4 (human) binding. P47928. small molecule microarray, Flag-ID4 binding, fluorescence F/B. calls only. 31,000 compounds, 1.2% hits;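 active = spot signal over background at p below 0.07 in all four prints; compounds were printed on slides so no solution concentration is given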;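 also: a binder raises fluorescence above local background on the spot; about 2 pmol printed per array spot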
Target sequence (P47928 whole entry, looked up): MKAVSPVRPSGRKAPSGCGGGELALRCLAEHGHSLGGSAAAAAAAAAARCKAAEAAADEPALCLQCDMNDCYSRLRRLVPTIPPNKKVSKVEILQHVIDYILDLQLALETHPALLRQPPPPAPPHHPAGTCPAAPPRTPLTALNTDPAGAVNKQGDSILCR
Calls only; i = inactive; + = active, no number. A portion of the library, so the mix of outcomes need not match the whole.

Start of the data: the first 6 entries, ahead of the listing:
#	structure	ID4 SMM
1	COc1cccc(CC(CC(=O)O)C(=O)O)c1 (configuration not stated)	i
2	CCCNC(=O)N(C)C[C@@H]1Oc2ncc(Br)cc2C(=O)N([C@H](C)CO)C[C@H]1C	i
3	Cc1ccc(CN(C)C[C@@H]2OCc3cnnn3CCCC(=O)N([C@@H](C)CO)C[C@@H]2C)cc1	i
4	CN(C)C(=O)C[C@@H]1C=C[C@H](NC(=O)C2CCC2)[C@H](CO)O1	i
5	CC(C)CC#Cc1cnc2c(c1)C(=O)N([C@H](C)CO)C[C@@H](C)[C@H](CN(C)C(=O)c1cccc(F)c1)O2	i
6	CC(C(=O)Nc1ccc(F)c(F)c1)N(c1ccc(Cl)cc1)S(C)(=O)=O (configuration not stated)	i

The whole of this part (from the top)
#	structure	ID4 SMM
1	COc1cccc(CC(CC(=O)O)C(=O)O)c1 (configuration not stated)	i
2	CCCNC(=O)N(C)C[C@@H]1Oc2ncc(Br)cc2C(=O)N([C@H](C)CO)C[C@H]1C	i
3	Cc1ccc(CN(C)C[C@@H]2OCc3cnnn3CCCC(=O)N([C@@H](C)CO)C[C@@H]2C)cc1	i
4	CN(C)C(=O)C[C@@H]1C=C[C@H](NC(=O)C2CCC2)[C@H](CO)O1	i
5	CC(C)CC#Cc1cnc2c(c1)C(=O)N([C@H](C)CO)C[C@@H](C)[C@H](CN(C)C(=O)c1cccc(F)c1)O2	i
6	CC(C(=O)Nc1ccc(F)c(F)c1)N(c1ccc(Cl)cc1)S(C)(=O)=O (configuration not stated)	i
7	COCC(=O)N(C)C[C@@H]1Oc2ncc(-c3ccc(F)cc3)cc2C(=O)N([C@H](C)CO)C[C@@H]1C	i
8	C[C@@H]1CN([C@H](C)CO)C(=O)c2cc(-c3ccncc3)cnc2O[C@H]1CN(C)C(=O)NC1CCCC1	+
9	O=C(C[C@H]1C[C@@H]2c3cc(NC(=O)c4ccc5c(c4)OCO5)ccc3O[C@@H]2[C@@H](CO)O1)NCc1cccc(F)c1	i
10	CC1(C)CC[C@]2(C(=O)O[C@@H]3O[C@H](CO)[C@@H](O)[C@H](O)[C@H]3O)CC[C@]3(C)C(=CCC4[C@@]5(C)C[C@@H](O)[C@H](O)[C@](C)(CO)C5CC[C@]43C)C2[C@@H]1O (some centres not stated)	i
11	CC(=O)c1cccc(NC(=O)CN(c2ccc(F)c(Cl)c2)S(C)(=O)=O)c1	i
12	CCOc1ccc(-n2c(SCC(=O)N3CCOCC3)nnc2-c2ccncc2)cc1	i
13	Cc1ccccc1-c1cnc2c(c1)C(=O)N([C@H](C)CO)C[C@@H](C)[C@@H](CN(C)C(=O)c1ccccc1)O2	i
14	Cc1cc(Br)ccc1NC(=O)CCN1C(=O)c2ccccc2S1(=O)=O	i
15	COC(=O)c1c(NC(=O)C(C)Oc2ccccc2F)sc2c1CCC2 (configuration not stated)	i
16	COc1ccc(S(=O)(=O)N(CC(N)=O)c2ccc(F)cc2)cc1	i
17	COC(=O)c1sc(NC(=S)Nc2c(C)nn(Cc3c(F)c(F)c(F)c(F)c3F)c2C)c(C(=O)OC)c1C	i
18	CCn1c(SCC(=O)Nc2cc(Cl)ccc2Cl)nnc1-c1ccc(Cl)cc1	i
19	COc1ccc([Si](C)(C)[C@H]2[C@H](CCn3cc([C@H](O)c4ccccc4)nn3)O[C@@]3(C(=O)N(C)c4c(Br)cc(C)cc43)[C@@H]2C)cc1	i
20	NCC[C@H]1CC[C@@H](NC(=O)C2CCCC2)[C@@H](CO)O1	i
21	C[C@@H]1CN([C@@H](C)CO)C(=O)c2ccccc2-c2ccccc2CO[C@@H]1CN(C)C(=O)NC1CCCCC1	i
22	COc1cc(NC(=O)CSc2nncn2C)cc(OC)c1OC	i
23	CC(C(=O)Nc1ccc(Cl)c(Cl)c1)N(c1ccccc1)S(C)(=O)=O (configuration not stated)	i
24	COc1cccc(-c2cnc3c(c2)C(=O)N([C@H](C)CO)C[C@H](C)[C@@H](CN(C)Cc2cccnc2)O3)c1	i
25	CCC(=O)N(C)C[C@H]1Oc2cc(/C=C/c3ccccc3)ccc2S(=O)(=O)N([C@H](C)CO)C[C@H]1C	i
26	NC(N)=NCCNS(=O)(=O)c1cccc2cnccc12	i
27	Cc1ccc(NC(=O)c2cccc(N(C)C)c2)cc1NC(=O)c1ccc(O)cc1	i
28	C[C@@H]1CN([C@H](C)CO)C(=O)c2cc(-c3ccc(C(=O)N(C)C)cc3)cnc2O[C@H]1CN(C)C(=O)CN(C)C	i
29	CCCN(C)C[C@@H]1Oc2cc(-c3cccc(C#N)c3)ccc2S(=O)(=O)N([C@@H](C)CO)C[C@@H]1C	i
30	COc1ccccc1-c1cnc2c(c1)C(=O)N([C@H](C)CO)C[C@H](C)[C@H](CN(C)CC1CC1)O2	i
31	O=C(CSc1nnnn1C1CC2CCC1C2)Nc1ccnc2ccccc12 (configuration not stated)	i
32	C[C@H](CO)N1C[C@H](C)[C@@H](CN(C)C(=O)C2CCC2)Oc2ncc(C3=CCCC3)cc2C1=O	i
33	Cc1ccc(C(C)C)c(OCC(=O)/C=C2\Sc3ccccc3N2C)c1	i
34	CCSc1nc2ccccc2n1C(CC(=O)O)C(=O)O (configuration not stated)	i
35	Cc1ccc(Oc2ncccc2C(=O)NCC(=O)O)cc1	i
36	C[C@H](NC(=O)C[C@@H]1CC[C@@H](NC(=O)C2CC2)[C@H](CO)O1)c1ccccc1	i
37	C[C@@H]1CN([C@@H](C)CO)C(=O)c2cc(NC(=O)CCC(F)(F)F)ccc2O[C@H]1CN(C)CC1CC1	i
38	C=CCNC(=O)[C@@H]1[C@H]2C(=O)O[C@H](c3ccccc3)[C@H](c3ccccc3)N2[C@H](c2ccc(OCCO)cc2)[C@@]12C(=O)N(C(=O)OCCOC)c1ccc(C#CCC(C(=O)OC)C(=O)OC)cc12	i
39	CCCC#Cc1cnc2c(c1)C(=O)N([C@@H](C)CO)C[C@@H](C)[C@H](CN(C)Cc1ccc3c(c1)OCO3)O2	i
40	Cc1ccc(NC(=O)CSc2nncn2C)c(C)c1	i
41	COc1cc(NC(=O)C(C)Oc2ccc(Cl)cc2C)c(C(=O)O)cc1OC (configuration not stated)	i
42	Cn1nnc2cc(NC(=O)NCc3ccco3)ccc21	i
43	CCCc1ccc(-c2cc(C(=O)NCc3cccnc3)c3ccccc3n2)cc1	i
44	Nc1nnc(SCc2cccnc2)s1	i
45	C[C@@H]1CN([C@H](C)CO)C(=O)c2cc(C#CC3CC3)cnc2O[C@H]1CN(C)Cc1ccncc1	i
46	CCOC(=O)c1c(NC(=S)NCc2ccco2)sc2c1CCCCCC2	i
47	COc1ccc(NC(=O)C(C)Oc2ccccc2C)c([N+](=O)[O-])c1 (configuration not stated)	i
48	CC(=O)N(C)C[C@@H]1Oc2ncc(C#Cc3ccc(F)cc3)cc2C(=O)N([C@H](C)CO)C[C@@H]1C	i
49	O=C(N[C@H]1CC[C@H](CC(=O)N2CCN(c3ccccc3)CC2)O[C@@H]1CO)c1ccncc1	i
50	O=C(C[C@H]1CC[C@H](NC(=O)c2cccc(F)c2)[C@H](CO)O1)NCc1ccc(Oc2ccccc2)cc1	i
51	O=[N+]([O-])c1cccc(S(=O)(=O)NCCOc2cccc(Cl)c2Cl)c1	i
52	CCOc1ccc(NC(=O)Cn2cc([N+](=O)[O-])cn2)cc1	i
53	Cn1c(SCC(=O)Nc2ccccc2)nc2sc3c(c2c1=O)CCC3	i
54	CCCN(C)C[C@H]1Oc2ncc(C#Cc3ccc(OC)cc3)cc2C(=O)N([C@@H](C)CO)C[C@H]1C	i
55	C[C@H](CO)N1C[C@H](C)[C@@H](CN(C)Cc2ccc(F)cc2)Oc2ncc(-c3ccncc3)cc2C1=O	i
56	CCOC(=O)c1sc(NC(=O)CSc2nc(C)cc(C(F)(F)F)n2)c(C#N)c1C	i
57	COc1ccc(OC)c(S(=O)(=O)N(C)CC(=O)N2CCCC2)c1	i
58	Cc1ccc(C(=O)CCC(=O)Nc2cccnc2)cc1C	i
59	CCS(=O)(=O)N[C@@H]1CC[C@@H](CC(=O)N2CCCCC2)O[C@@H]1CO	i
60	COCCNC(=O)C[C@@H]1C=C[C@H](NC(=O)NC2CCCCC2)[C@H](CO)O1	i

Going on with the list:
#	structure	ID4 SMM
61	COc1ccccc1-c1cnc2c(c1)C(=O)N([C@H](C)CO)C[C@H](C)[C@H](CN(C)CC1CCOCC1)O2	i
62	C[C@@H]1CN([C@H](C)CO)C(=O)c2cc(C3=CCCCC3)cnc2O[C@@H]1CN(C)Cc1ccccn1	i
63	CCN(CC)CCCCCCCCOC(=O)c1cc(OC)c(OC)c(OC)c1	i
64	Nc1cccc(-c2nnc(SCC(=O)Nc3cccc(Cl)c3)n2-c2ccccc2)c1	i
65	C[C@H]1CN([C@@H](C)CO)C(=O)c2cc(C3=CCCC3)cnc2O[C@H]1CN(C)C(=O)CN1CCOCC1	i
66	CCNC(=O)C[C@@H]1CC[C@H](NC(=O)C2CCC2)[C@@H](CO)O1	i
67	CCN(CC)CCNc1ncnc(N)c1[N+](=O)[O-]	i
68	O=C(C[C@H]1C=C[C@@H](NC(=O)C2CC2)[C@@H](CO)O1)NCc1ccccc1Cl	i
69	COc1ccc(NC(=O)CN2CCN(S(=O)(=O)c3ccc(F)cc3)CC2)cc1	i
70	COc1ccc(CN2CCN(C(=O)c3cc(-c4cccnc4)nc4ccc(Cl)cc34)CC2)c(OC)c1OC	i
71	COc1ccc(C)cc1S(=O)(=O)N(C)CC(=O)Nc1ccccc1C(F)(F)F	i
72	C[C@@H]1CN([C@@H](C)CO)C(=O)c2cc(-c3cccc(F)c3)cnc2O[C@@H]1CN(C)C	i

Reformatted as labelled records: entries from further up
(26) NC(N)=NCCNS(=O)(=O)c1cccc2cnccc12
  ID4 SMM: i

(23) CC(C(=O)Nc1ccc(Cl)c(Cl)c1)N(c1ccccc1)S(C)(=O)=O (configuration not stated)
  ID4 SMM: i

(67) CCN(CC)CCNc1ncnc(N)c1[N+](=O)[O-]
  ID4 SMM: i

Next structures follow:
#	structure	ID4 SMM
73	c1ccc2sc(N3CCN(Cc4ccc5c(c4)OCO5)CC3)nc2c1	i
74	C[C@H](NC(=O)C[C@H]1C=C[C@H](NC(=O)Cc2ccccn2)[C@@H](CO)O1)c1ccccc1	i
75	O=C(Nc1ccc(Cl)cc1)c1ccccc1NS(=O)(=O)c1cccc2cccnc12	i
76	CCCNC(=O)N1[C@H](CO)[C@H](c2ccc(C3=CCCC3)cc2)[C@@H]1C#N	i
77	CS(=O)(=O)N(CC(=O)Nc1cccc(C(F)(F)F)c1)c1cc(Cl)c(Cl)cc1Cl	i
78	COC(=O)c1oc2c(c1C)-c1nc3ccccc3nc1C(C)(C)C2	i
79	CC(=O)c1cccc(NC(=O)Nc2nn(Cc3c(F)cccc3Cl)cc2Br)c1	i
80	C[C@@H](NC(=O)C[C@@H]1CC[C@@H](NC(=O)C2CCC2)[C@@H](CO)O1)c1ccccc1	i
81	O=C(CN1CCN(c2cccc(Cl)c2)CC1)Nc1ccc([N+](=O)[O-])cc1C(=O)Nc1ccccc1F	i
82	Cc1cc(C)c(C(=O)CSc2nc(C)cc(=O)[nH]2)c(C)c1	i
83	COc1ccc(NC(=O)Cc2nc(-c3ccc([N+](=O)[O-])cc3)cs2)cc1	i
84	O=C(CSc1nc2ccccc2[nH]1)Nc1cccc(C(=O)O)c1	i
85	CCC(=O)N[C@@H]1CC[C@@H](CC(=O)NCc2ccccc2F)O[C@@H]1CO	i
86	CC1(C)Cc2c(sc3c2c2ncnn2c2nnc(SCC(=O)NCc4ccccc4)n32)CO1	i
87	Cc1c(O)nc(SC2CC(=O)N(c3ccccc3)C2=O)[nH]c1=O (configuration not stated)	i
88	CC(=O)N(C)C[C@H]1Oc2ncc(-c3ccccc3F)cc2C(=O)N([C@H](C)CO)C[C@H]1C	i
89	C[C@@H]1CN([C@@H](C)CO)C(=O)c2cc(-c3ccc(C#N)cc3)cnc2O[C@@H]1CN(C)CC1CC1	i
90	CCN(CC(=O)Nc1cccc(Cl)c1C)S(=O)(=O)c1ccc(F)cc1	i
91	C[C@@H]1CN([C@@H](C)CO)C(=O)c2cc(-c3cccc(F)c3)cnc2O[C@H]1CN(C)Cc1cccc(F)c1	i
92	COc1ccc(S(=O)(=O)N[C@@H]2C=C[C@@H](CC(=O)NCCc3ccccc3)O[C@@H]2CO)cc1	i
93	COc1ccc(OC)c(N(CC(=O)Nc2cccc(Cl)c2C)S(C)(=O)=O)c1	i
94	O=C(CCN1C(=O)c2ccccc2S1(=O)=O)Nc1cccc2ccccc12	i
95	C[C@@H](NC(=O)C[C@H]1CC[C@H](NC(=O)c2cccnc2)[C@@H](CO)O1)c1ccccc1	i
96	O=C(/C=C/N1CCOCC1)c1csc(-c2ccc(C(F)(F)F)cc2)n1	i
97	C=CCNC(=O)[C@H]1[C@@H]2C(=O)O[C@@H](c3ccccc3)[C@@H](c3ccccc3)N2[C@@H](c2ccc(O)cc2)[C@]12C(=O)Nc1ccc(C#CC3=CCCCC3)cc12	i
98	COC(=O)/C=c1/sc2n(c1=O)C(C)=CC(C)(C)N=2	i
99	COc1ccc(C)cc1NC(=O)CSc1nc2ccccc2c(=O)n1-c1ccc(Cl)cc1	i
100	CCCC#Cc1cnc2c(c1)C(=O)N([C@H](C)CO)C[C@H](C)[C@@H](CN(C)C(=O)CCN1CCCCC1)O2	i
101	CN1CCN(C(=O)C[C@H]2CC[C@H](NC(=O)Nc3ccccc3F)[C@H](CO)O2)CC1	i
102	CC(=O)N(C)C[C@H]1Oc2ncc(C#Cc3cccc(F)c3)cc2C(=O)N([C@H](C)CO)C[C@@H]1C	i
103	O=C(C[C@H]1CC[C@H](NC(=O)CN2CCOCC2)[C@H](CO)O1)NCCc1ccncc1	i
104	CC(=O)N(C)C[C@H]1Oc2cc(-c3ccc(C#N)cc3)ccc2S(=O)(=O)N([C@H](C)CO)C[C@H]1C	i
105	COc1ccccc1-c1ccc([C@H]2[C@@H](CO)N(C(=O)NC(C)C)[C@H]2C#N)cc1	i
106	CO[C@H](CN(C)S(=O)(=O)c1ccc(F)cc1)[C@H](C)CN(C(=O)Nc1ccccc1F)[C@@H](C)CO	i
107	O=C(Nc1c(Cl)cc(Cl)cc1C(=O)NCCN1CCOCC1)c1cccc([N+](=O)[O-])c1	i
